AF4-AF9 inh: MLL-AF4/AF9 protein interaction inhibition; actives 0.47% (n = 350,000); P42568; AID 651704; inhibition, % at 10 µM; AlphaScreen, biotin-AF4 peptide binding to FLAG-AF9;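 active = every replicate reaching a set inhibition limit, whatever the replicate mean, cut at about 25% in these data; inconclusive = mean inhibition reaches that limit but some replicates miss it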;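 note: 0% = plate neutral control median and 100% = total signal loss; the record names both 10 and 1 µM as test concentration; the first replicate is given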
Target sequence (P42568 whole entry, looked up): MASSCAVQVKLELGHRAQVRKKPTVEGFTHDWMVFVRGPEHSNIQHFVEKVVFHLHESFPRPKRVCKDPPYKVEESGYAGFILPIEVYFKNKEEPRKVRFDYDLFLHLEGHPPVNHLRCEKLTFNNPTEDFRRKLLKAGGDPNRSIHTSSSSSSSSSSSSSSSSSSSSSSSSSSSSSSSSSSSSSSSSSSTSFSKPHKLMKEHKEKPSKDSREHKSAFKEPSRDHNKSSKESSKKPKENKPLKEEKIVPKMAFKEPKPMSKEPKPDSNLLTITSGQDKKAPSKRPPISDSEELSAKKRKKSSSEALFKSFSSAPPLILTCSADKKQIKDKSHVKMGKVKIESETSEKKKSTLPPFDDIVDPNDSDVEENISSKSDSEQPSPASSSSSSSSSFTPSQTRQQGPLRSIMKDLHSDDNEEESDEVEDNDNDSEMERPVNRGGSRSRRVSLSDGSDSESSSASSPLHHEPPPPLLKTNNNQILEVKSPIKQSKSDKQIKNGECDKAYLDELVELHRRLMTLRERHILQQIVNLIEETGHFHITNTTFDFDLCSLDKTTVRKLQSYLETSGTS
Ecoli rRNA inh: selective bacterial rRNA inhibition in E. coli. E. coli WT GFP vs humanized-ribosome RFP mutants, fluorescence, 24 h; hits give low values; DMSO median 0, no signal -100. GFP signal change (wild-type ribosome), % (concentration not given with the values). actives 1.6% (n = 350,000);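 active = significant combined selectivity score with lowered wild-type GFP, culture density cut under 30%, mutant RFP and density less affected; inactive = any of these conditions unmet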; note: one replicate is shown; some compounds called inactive have numbers as strong as hits
Beta apoptosis: beta cell apoptosis inhibition; actives 0.8% (n = 300,000); INS-1E cytokine-induced death, ATP luminescence, 48 h; percent of positive-control rescue, neutral wells zero; protection from apoptosis, % (test concentration not listed);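 active = all replicates at 75% or more, or half of them and the mean; inconclusive = half reach 75% but not the mean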;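 note: 0% = cytokine-treated negative control wells and 100% = positive control rescue; higher means more ATP so stronger rescue from cytokine killing; wells of about 40 µL received 100 nL stock; the first replicate is given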
A1 inh: inhibitors of the anti-apoptotic protein A1, read as caspase activation; MEF A1-2A-BIM cells, Caspase-Glo 3/7 luminescence, 3 h; percent of clofoctol response, vehicle zero; caspase activation, % (test concentration not listed); actives 0.066% (n = 330,000); AID 2462;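 active = over half of replicate activation scores above 10%, or exactly half above 10 with the replicate mean above 10; inconclusive = replicate mean below 10 yet half the replicates above 10; inactive = over half of replicates below 10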;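 note: wells of about 30 µL received 50 nL stock; many hits fall short of the cut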
UCH37 inh: inhibitors of human deubiquitinating enzyme UCH37 | actives 0.33% (n = 330,000) | purified proteasome/UCH37, Ub-AMC cleavage fluorescence | inhibition, % (test concentration not listed) | Q9Y5K5;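 active = mean of two replicates above 20%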;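 note: 0% = compound-free wells with enzyme and 100% = wells lacking proteasome; stock transfer was 100 nL into about 20 µL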
Target sequence (Q9Y5K5 whole entry, looked up): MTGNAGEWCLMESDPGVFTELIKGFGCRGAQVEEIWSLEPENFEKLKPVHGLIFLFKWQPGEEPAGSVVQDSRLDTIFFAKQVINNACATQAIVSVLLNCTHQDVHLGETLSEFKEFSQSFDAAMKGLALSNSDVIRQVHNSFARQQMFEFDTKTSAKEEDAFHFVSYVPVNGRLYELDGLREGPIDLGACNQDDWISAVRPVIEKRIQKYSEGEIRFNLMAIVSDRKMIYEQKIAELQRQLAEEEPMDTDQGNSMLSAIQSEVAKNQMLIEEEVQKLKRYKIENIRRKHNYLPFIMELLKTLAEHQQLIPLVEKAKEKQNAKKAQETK
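Material: Human UCH37 enzyme supplied as purified proteasome complex | Schedule: 30 min compound-proteasome preincubation then 25 min substrate reaction, room temperature | Detection: AMC fluorescence from Ub-AMC cleavage, excitation 355 nm, emission 460 nm | Benchmarks: Wells without proteasome as full block, compound-free enzyme plus substrate as uninhibited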
Ecoli growth: E. coli growth inhibition. actives 0.21% (n = 330,000). Escherichia coli growth, OD600, 23 h; hits give low values. OD600 absorbance (no concentration beside the values);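 active = OD600 absorbance below the run mean of sample wells minus 3.6 SD, in any replicate, cut at about 0.56 in these data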;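 note: stock transfer was 300 nL into about 60 µL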
FGF22 binding: shifts melting point of recombinant human FGF22. Q9HCT0. recombinant FGF22 thermal shift, SYPRO orange fluorescence; percent of sucrose octasulfate shift, DMSO zero. calls only at 9.99 µM. actives 1.5% (n = 340,000). AID 651658;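 active = melting point raised past a set limit in the mean and every replicate; inconclusive = no clear call; three in four hits are not shown here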
Target sequence (Q9HCT0 whole entry, looked up): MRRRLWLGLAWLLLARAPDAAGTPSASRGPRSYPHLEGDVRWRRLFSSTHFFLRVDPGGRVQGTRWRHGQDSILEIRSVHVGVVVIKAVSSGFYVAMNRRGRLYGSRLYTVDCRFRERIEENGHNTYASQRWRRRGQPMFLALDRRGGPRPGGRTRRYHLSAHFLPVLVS
T cruzi repl: blocks replication of Trypanosoma cruzi. inhibition, % (concentration not given with the values). actives 1.4% (n = 300,000). T. cruzi beta-gal in NIH3T3, luminescence, 90 h;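 active = mean inhibition across valid replicates above about 55%, limit read from the data; inconclusive = mean below that limit but half or more replicates reach it; inactive = mean below it, under half of replicates reach it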;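 note: signal also drops with host cell toxicity which is not excluded here; 0% = plate median of DMSO wells and 100% = zero luminescence signal; higher percent means less beta-gal luminescence so fewer parasites; stock transfer was 50 nL into about 50 µL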
Ecoli rRNA inh OD600: second read-out of Ecoli rRNA inh, no call of its own (marks repeat the call); OD600 change, %; measured here: OD600 growth;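 optical density of the mix in the first replicate; 0 = DMSO median and -100 = no signal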
Ecoli rRNA inh RFP: recorded beside Ecoli rRNA inh, whose call it bears; RFP signal change, %; measured here: RFP humanized mutant strains;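 first replicate; 0 = DMSO median and -100 = no signal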
Numbers without * were called inactive; i = inactive; ? = inconclusive; . = not tested or not shown. Not all compounds are listed. The share of hits here may be higher or lower than overall.

SMILES	AF4-AF9 inh	Ecoli rRNA inh	Ecoli rRNA inh OD600	Ecoli rRNA inh RFP	Beta apoptosis	A1 inh	UCH37 inh	Ecoli growth	FGF22 binding	T cruzi repl
C=CCOc1ccc2nc(NC(=O)OC)[nH]c2c1	.	.	.	.	.	0.4	1.3	0.67	.	-1
COc1cc(N)ccc1C(=O)O	.	.	.	.	-3	0.0	1.2	0.73	.	-7
COc1ccc(NC(=O)Nc2nnc(CC(=O)Nc3ccccc3)s2)cc1	0.0	-14	1	3.9	-10	0.1	0.7	0.72	i	-8
O=C(O)Cn1cc2c(n1)CCCCC2	.	.	.	.	-4	-1.4	1.5	0.69	.	-15
O=C(COC(=O)c1ccc(Br)o1)NCc1cccs1	.	2	6	-1.0	0	0.1	2.0	0.74	.	-13
Cc1ccc(NC(=O)CSc2nc(=O)n(CCCN3CCOCC3)c3c2CCCC3)cc1	1.1	3	-2	1.9	0	0.5	-0.7	0.65	i	16
CCCCc1cc(=O)oc2cc(C)cc(OCC(=O)NCc3ccccn3)c12	-0.7	-16	-19	-3.0	1	0.8	-133	0.65	i	1
CCCc1ccc(OC(=O)c2cccs2)cc1	.	.	.	.	-3	0.4	2.9	0.67	.	4
COc1ccc(C(=O)n2nc(C)c(Br)c2C)cc1OC	1.2	11	17	1.1	-2	-0.1	0.1	0.68	i	0
Cc1ccccc1CSCC(=O)Nc1ccccc1Br	1.2	-23*	-18*	-4.5*	-5	2.5	0.6	0.68	i	14
COc1ccc(C)cc1S(=O)(=O)N(C)CC(=O)NC1CCCC1	.	.	.	.	-6	0.0	3.6	0.75	.	-1
FC(F)(F)Oc1ccc(NC(=S)NCCCN2CCOCC2)cc1	-1.4	13	11	2.7	-5	0.8	2.0	0.69	i	-15
CCN(CCO)Cc1csc2ccc(C(C)(C)C)cc12	.	.	.	.	-12	-0.6	5.1	0.67	.	11
CCn1ccnc1CN(C)Cc1nc(-c2ccccc2)no1	-7.1	10	2	0.9	-4	-0.3	-0.2	0.67	i	-13
CCOc1ccc(S(=O)(=O)N2CCC(C(=O)NCC3CCCO3)CC2)cc1C (centres undefined)	-0.9	1	4	-0.1	-1	-0.6	3.4	0.67	i	-1
CCOC(=O)CCC(=O)Nc1cc(S(=O)(=O)N2CCOCC2)ccc1N1CCCCC1	-0.2	1	10	-4.0	-1	-0.9	1.7	0.64	i	.
C[C@@]12C(=O)N(c3ccc(F)cc3)C(=O)N1[C@@H]1c3ccccc3OC[C@@H]1[C@H]2c1ccccc1	1.8	0	1	-7.7	6	0.4	1.0	.	i	6
CC(=O)NC12CC3CC(C1)CC(C(=O)Nc1c(C)n(C)n(-c4ccccc4)c1=O)(C3)C2	-0.8	16	17	0.9	.	-0.1	-0.4	0.64	i	3
CN=C1SC(CC(=O)Nc2sc(C)c(C)c2C(=O)OC)C(=O)N1C (centres undefined)	.	.	.	.	-7	0.4	-0.8	0.69	.	18
O=C(c1ccccc1)N1N=C(c2ccccc2)CC1c1ccc2nccnc2c1 (centres undefined)	4.7	7	8	3.0	.	0.7	5.5	0.71	i	1
CCOC(=O)CNC(=O)CSc1nnc(-c2cccc(C)c2)n1-c1ccc(OC)cc1	.	.	.	.	-5	0.2	7.3	0.74	.	2
CCCCC(=O)NC(NC(=O)CCCC)c1ccc(OCC(C)C)c(OC)c1	.	.	.	.	.	0.2	0.5	0.66	.	-16
Cc1ccc(N/C=C(\C#N)S(=O)(=O)c2ccccc2)cc1	0.3	8	9	-1.5	3	-0.1	2.0	0.71	i	-3
Fc1ccc(Nc2ncnc3ccccc23)cc1	0.1	1	0	-0.7	12	-0.4	4.2	0.6	i	-3
O=S(Cc1ccc(Br)cc1)Cc1nnc(SCc2c(Cl)cccc2Cl)n1-c1ccccc1 (centres undefined)	3.7	-42	-46	22	40	0.1	0.3	0.67	i	40
O=C(NCCN1CCC(Cc2ccccc2)CC1)C1CCN(S(=O)(=O)N2CCC3(CC2)OCCO3)CC1	3.4	17	1	3.5	1	-0.5	1.8	0.69	i	14
O=C(Nc1ccc(N2CCOCC2)c(F)c1)c1cccs1	0.7	3	-1	-3.2	8	-5.4	5.2	0.68	i	-16
COc1ccc(S(=O)(=O)n2ccnc2)c2cccnc12	.	.	.	.	-1	0.2	-37	0.71	.	-3
COc1cc(C(=O)NCc2cccc3ccccc23)cc(Cl)c1OC	.	.	.	.	-2	0.3	1.6	0.69	.	-4
COc1ccccc1N(C)S(=O)(=O)c1ccc(C(=O)NCCc2ccc(F)cc2)cc1	1.1	-6	-4	-1.7	0	0.7	0.8	0.68	i	23
COc1cc(CNS(=O)(=O)CCl)cc(OC)c1OC	-2.1	4	11	6.8	-3	-0.3	-0.5	0.62	i	.
Cc1ccc(NC(=O)CSc2n[nH]c(-c3ccccn3)n2)cc1	-8.7	-45	-69	-12	9	-0.8	5.0	0.66	i	9
COc1ccc(C2c3c(c(C)c(C)oc3=O)Oc3c(C)c(C)oc(=O)c32)cc1	.	12	6	-0.2	-1	-1.9	-0.3	0.74	i	.
CN(Cc1ccc(F)cc1)C(=O)c1cccc(OC2CCN(C3CCCC3)CC2)c1	-2.8	11	6	0.8	-4	0.4	2.8	0.7	i	35
C=CCn1c(C)cc(C(=O)COC(=O)[C@@H](NC(=O)c2ccccc2Cl)C(C)C)c1C	5.9	.	.	.	1	-1.6	0.9	0.69	i	-8
CCOc1ccc(C(C)=O)cc1COC(=O)c1ccccc1C(=O)N(C)Cc1ccccc1	0.2	-25	-39	-0.5	.	.	2.0	0.67	i	.
CCN(CC)C(=O)c1[nH]cnc1C(=O)N[C@@H](Cc1ccccc1)C(=O)OC(C)(C)C	-8.6	1	-2	6.7	-6	0.4	4.5	.	i	7
CCOc1ccc(C(=O)N2CCN(CCc3ccccc3)CC2)cc1OCC	3.7	5	-5	1.7	.	-0.2	1.3	0.63	i	18
COc1cc([C@H]2[C@@H]3CCCC[C@]3(O)CCN2CC(=O)Nc2ccc(C)cc2)ccc1O	.	.	.	.	-4	-0.1	1.6	0.72	.	-18
Cc1cc(C)n(-c2ccc(C(=O)Nc3cccc(S(=O)(=O)N(C)C)c3)cc2)n1	1.9	-24	-12	23	16	1.1	4.1	0.73	i	-14
Cc1cc(C)cc(NC(=O)CN2CCCN(S(=O)(=O)c3ccc(Br)s3)CC2)c1	.	.	.	.	2	-0.1	3.3	0.78	.	18
CC(=O)Nc1ccc(NC(=O)C2CCCN2C(=O)Nc2cccc(F)c2)cc1 (centres undefined)	-0.2	2	6	-0.1	-2	0.2	2.0	0.61	i	-23
COC(=O)c1[nH]c2cc(OC)ccc2c1NC(=O)c1c(F)cccc1F	-0.9	16	-3	5.3	-1	0.1	-35	0.68	i	4
CCOC(=O)N1CCN(C(=O)COc2cccc3c2CCN(Cc2cccc(C)c2)C3=O)CC1	-2.5	-25*	-14*	1.8*	1	1.0	4.6	0.69	i	10
Cc1ccccc1Oc1cc(NC(=O)Cn2cnc([N+](=O)[O-])c2)cc([N+](=O)[O-])c1	-0.1	18	9	4.7	1	1.0	.	.	i	50

The last 2 compounds of the section before open the next one.
SMILES	AF4-AF9 inh	Ecoli rRNA inh	Ecoli rRNA inh OD600	Ecoli rRNA inh RFP	Beta apoptosis	A1 inh	UCH37 inh	Ecoli growth	FGF22 binding	T cruzi repl
CCOC(=O)N1CCN(C(=O)COc2cccc3c2CCN(Cc2cccc(C)c2)C3=O)CC1	-2.5	-25*	-14*	1.8*	1	1.0	4.6	0.69	i	10
Cc1ccccc1Oc1cc(NC(=O)Cn2cnc([N+](=O)[O-])c2)cc([N+](=O)[O-])c1	-0.1	18	9	4.7	1	1.0	.	.	i	50
O=C(O)C1CC=CCC1C(=O)Nc1ccccc1C(=O)N1CCN(c2ccc(Cl)cc2)CC1 (centres undefined)	1.1	-15	-14	-2.1	-4	1.4	.	.	i	-15
Cc1ccc(OC(C)C(=O)Nc2ccc(S(=O)(=O)N3CCOCC3)cc2)cc1 (centres undefined)	-8.3	-10	-9	-0.3	-1	-0.6	2.0	0.69	i	-5
O=C(O)Cn1c(=O)n(Cc2ccccc2)c2ccccc21	-1.4	5	8	-0.8	-5	0.0	2.2	0.74	i	0
COc1ccc(C(=O)NCC(=O)OCc2ccc(F)cc2)cc1	-1.3	-1	3	-0.4	0	1.0	-0.6	0.71	i	-4
OC(CC#CCN1CCOCC1)(c1ccccc1)c1ccccc1	-1.0	-7	-7	-0.6	1	1.0	2.6	0.7	i	-3
COc1ccc(N(C(=O)c2cnccn2)C(C(=O)NC2CCCCC2)c2ccc(Cl)cc2)cc1 (centres undefined)	.	.	.	.	1	0.6	2.5	0.66	.	2
CC(C)(C)C1CCC(OCC(O)CN2CCN(c3ccccn3)CC2)CC1 (centres undefined)	-9.3	-35*	-14*	-4.4*	-7	0.2	0.0	0.68	i	37
CC(C)OC(=O)CSc1nnc(COc2ccc([N+](=O)[O-])cc2)n1C	-0.8	-1	9	1.2	-10	0.7	3.7	0.67	i	6
O=C1c2cccnc2C(Nc2ccc(F)c(Cl)c2)N1Cc1cccs1 (centres undefined)	3.7	-24	-28	-1.9	-8	?	1.7	0.7	i	13
Nc1nc2ncc(C(=O)c3cc(F)ccc3O)cc2s1	-2.4	0	1	3.3	-4	1.0	5.9	0.67	i	-8
CCCn1c(C(CO)Nc2nc(C)cs2)nc2ccccc21 (centres undefined)	-9.8	21	6	6.1	-3	1.0	2.9	0.69	i	-16
C(#CCN1CCOCC1)COC(c1ccccc1)c1ccccc1	.	.	.	.	-11	0.9	0.5	0.73	.	7
C/C(=N\NC(=O)c1nnn(-c2nonc2N)c1CSc1ccccc1)c1ccc2c(c1)OCO2	-3.1	-1	2	4.5	-3	1.8	.	.	i	1
COc1cc(OC)cc(C(=O)N[C@H](C(=O)NCCc2ccc(S(N)(=O)=O)cc2)C(C)C)c1	-14	6	9	-2.5	-1	0.0	-0.1	0.7	i	-4
CC(NC(=O)N(Cc1ccccc1)Cc1ccc2c(c1)OCO2)(C(F)(F)F)C(F)(F)F	.	.	.	.	0	-0.9	1.5	0.7	.	11
Cc1c(C(N)=O)cc([N+](=O)[O-])cc1[N+](=O)[O-]	-0.7	-9	5	-0.6	.	.	4.1	0.69	i	.
CC(NC(=O)NC(=O)c1ccc(F)cc1)C1CC1 (centres undefined)	0.7	3	9	-3.2	3	-3.4	2.7	0.64	i	.
C[C@@H]1COC(=O)[C@H](Cc2ccc(F)cc2)C/C=C\C[C@@H](CC(=O)NCCO)C(=O)N1	-15	10	15	16	-6	1.2	4.9	.	i	.
Cc1nc2ccccc2cc1C(=O)NCc1ccccc1	-1.6	-6	-34	-3.6	.	0.2	4.6	0.67	i	-2
Cc1cc2sc(C(=O)O)c(C)c2s1	.	.	.	.	3	0.4	4.8	0.73	.	-9
c1ccc2[nH]c(SCC3CCCCO3)nc2c1 (centres undefined)	-2.8	-8	-2	-2.3	2	-3.6	-1.0	0.73	i	-19

Assay outcomes as filed in PubChem.
